# Assay outcomes deposited in PubChem BioAssay by several laboratories.
# HNF4A DNA FP – change in binding of human HNF4 alpha to DNA; P41235; HNF4a-FITC DNA binding, fluorescence polarization, 1 h; activity change, % at 10 µM; 360,000 tested, 0.3% active; AID 1224865; in the data active means activity change above about 30%, passing the limit was not always enough;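 further: controls were the assay level and a saturating level of protein; the project sought stronger binding though the title names inhibitors; some compounds called inactive have numbers as strong as hits; positive values seem to mean higher polarization but the record does not say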
# Beta2AR agonist – activates human beta-2 adrenergic receptor causing internalization; P07550; Am2.2-beta2AR cells, FAP receptor internalization, flow cytometry; reference of the scale not given here; response, % (concentration not given with the values); 340,000 tested, 0.43% active; AID 504454;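 active means response above a set limit, near 3 SD of response in nonfluorescent compounds, cut at about 42% in these data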;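 further: stock transfer was 100 nL into about 11 µL; a reference agonist was the positive control; negative values mostly stem from fluorescent compounds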
# Target sequence (P07550 whole entry, looked up): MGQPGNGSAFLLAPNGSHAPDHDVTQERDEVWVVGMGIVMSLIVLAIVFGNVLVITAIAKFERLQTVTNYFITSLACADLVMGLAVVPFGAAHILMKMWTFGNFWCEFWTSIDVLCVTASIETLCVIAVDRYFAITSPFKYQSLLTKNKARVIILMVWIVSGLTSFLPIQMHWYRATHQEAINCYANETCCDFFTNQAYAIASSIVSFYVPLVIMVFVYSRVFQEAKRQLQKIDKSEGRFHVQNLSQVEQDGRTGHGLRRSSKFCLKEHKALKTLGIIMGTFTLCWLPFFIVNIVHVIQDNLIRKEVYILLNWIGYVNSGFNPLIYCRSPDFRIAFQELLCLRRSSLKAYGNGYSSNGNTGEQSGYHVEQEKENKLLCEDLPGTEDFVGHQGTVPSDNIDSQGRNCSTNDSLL
# Vif A3G – HIV-1 Vif–A3G interaction blockers – biochemical, TR-FRET, GST-Vif 1-94, biotin-A3G peptide, dose response retest, primary screen (AID 1117319); TR-FRET GST-Vif / biotin-A3G peptide binding; higher % means a stronger effect; test concentration not given here; strong numbers were not always called active; one-dose inhibition, %; IC50 in µM for titrated hits; 260,000 tested, 0.57% active;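 active means above the screen mean plus three standard deviations and confirmed in dose response; inconclusive means results disagree or hit not tested in dose response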;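 further: Vif residues 1-94 fused to GST binding biotinylated APOBEC3G peptide 110-148; 0% = full assay without inhibitor and 100% = GST in place of GST-Vif; retest series ran down from 100 µM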
# Calb FLC – affects C. albicans growth with fluconazole. C. albicans CaCi-2 (fluconazole-resistant clinical isolate) + fluconazole, Alamar Blue growth, 48 h. growth inhibition, % (concentration not given with the values). 300,000 tested, 0.57% active. AID 1979;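 active means most replicates above 75%; inconclusive means exactly half above 75%; inactive means most below 75%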;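 further: all wells also contain fluconazole at 8 µg/ml as a sub-toxic cotreatment; 0% = median of DMSO wells and 100% = median of geldanamycin control wells; wells of about 8 µL received 7.5 nL stock; the first replicate is given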
# LANA-H2B inh – blocks KSHV LANA binding to histone H2A/H2B; cell-free LANA-H2A/H2B peptide, fluorescence polarization; inhibition, % (test concentration not listed); 320,000 tested, 0.6% active; in the data active means inhibition mostly above about 10%, no sharp cut-off; inactive means mostly below about 6.7%;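 further: stock transfer was 7.5 nL into about 10 µL; 0% = median of vehicle wells and 100% = median of positive control wells; one replicate is shown; the record names a cut of 25% in any replicate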
# ALR inh – human ALR oxidase inhibition via reduced H2O2; 290,000 tested, 3.8% active; AID 485317; inhibition, % (concentration not given with the values); P55789; purified ALR, DTT oxidation, H2O2 HRP-luminol luminescence;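 active means mean and each replicate at 75% or more; inconclusive means only one of the two met; inactive means neither met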;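 further: stock transfer was 7.5 nL into about 7.5 µL; 0% = neutral wells and 100% = wells with inactivated enzyme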
# Target sequence (P55789 whole entry, looked up): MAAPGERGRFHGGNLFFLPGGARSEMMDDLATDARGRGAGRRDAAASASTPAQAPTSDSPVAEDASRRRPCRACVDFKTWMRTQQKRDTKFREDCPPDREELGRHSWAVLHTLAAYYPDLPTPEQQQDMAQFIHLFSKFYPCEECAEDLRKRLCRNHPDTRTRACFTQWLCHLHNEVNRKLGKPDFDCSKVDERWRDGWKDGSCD
# RanGTP-Impb inh – inhibitors of RanGTP-importin-beta interaction, primary screen, biochemical, FRET, CFP-Ran, YFP-importin-beta, homogeneous | cell-free CFP-Ran/YFP-importin-beta FRET ratio | inhibition, % (no concentration beside the values) | 300,000 tested, 1.1% active | AID 2216;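 active means most replicates above 15%; inconclusive means exactly half above 15%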;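 further: 0% = DMSO wells and 100% = Ran loaded with GDP instead of GTP; wells of about 40 µL received 100 nL stock; the first replicate is given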
# The depositor's hits bear a star; ? = inconclusive; / = not tested or not shown.
SMILES,HNF4A DNA FP,Beta2AR agonist,Vif A3G,Calb FLC,LANA-H2B inh,ALR inh,RanGTP-Impb inh
COc1ccc(C)cc1N(CC(N)=O)S(=O)(=O)c1ccc(C)cc1,-0.7,2,22%,-2,-6.0,/,0.3
COc1ccc(NS(=O)(=O)c2ccc(-c3n[nH]c(=S)n3Cc3ccccc3)cc2)cc1,0.4,4,-5%,28,-2.1,64,0.4
CC(C)(C)N(CC#CCC1(O)c2ccccc2-c2ccccc21)CCO,-0.6,-3,/,-2,-0.4,28,3.1
CCSc1nc(N)nc2c1ncn2C1OC(CO)C(O)C1O (stereo not given),-0.1,3,-3%,/,/,/,/
O=C1Nc2cc3c(cc2C1=O)sc1ccccc13,-1.1,-3,7%,9,0.2,-46,0.5
COc1ccnc(-n2cccc2C#N)c1C#N,1.5,-2,-11%,-17,5.3,2,-3.6
COc1ccc(S(=O)(=O)NCCc2nnc3ccc(SCc4cccnc4)nn23)cc1,2.3,-15,9%,13,-5.7,-3,0.9
CCCc1cc(=O)[nH]c(SCC(=O)Nc2oc(C)c3c(C)n[nH]c(=O)c23)n1,-0.4,4,1%,3,-14,-18,5.8
FC(F)(F)c1nc(-c2cccs2)ncc1-c1nnnn1-c1ccc(Cl)cc1,-0.2,11,-1%,4,-1.8,-7,-1.3
Cc1ccc2c(c1)[C@@H](O)C[C@@H](C)N2N=O,-1.1,-1,/,-9,-0.3,-5,1.2
Fc1ccc(NC(=S)NCCN2CCOCC2)cc1,-0.1,3,-6%,18,4.0,29,?
CCOc1ccc(N(CC(=O)O)S(=O)(=O)c2ccc(OC)c(OC)c2)cc1,-2.4,0,5%,1,-4.7,13,-0.6
CCC(C)C(=O)N1CCc2cc(-c3csc(N)n3)ccc21 (stereo not given),-1.0,6,-2%,4,-0.5,98*,4.1
CCCC(C)NC(=O)c1cc(S(=O)(=O)N2CCCCCC2)ccc1OC (stereo not given),0.6,-4,-19%,/,0.7,/,/
Nc1nnc(SCc2cccnc2)s1,3.4,7,1%,3,0.7,-1,0.3
O=C(Oc1ccc(C(=S)N2CCOCC2)cc1)c1ccc(Br)cc1,0.0,3,/,11,3.7,0,9.6
O=c1nc2sc3ccccc3n2c(=O)n1-c1cccc(Cl)c1,1.8,-2,-7%,3,0.7,-2,0.9
CCN1C(=O)[C@H]2[C@@H](c3ccc(-c4ccccc4)cc3)N3CCCC[C@@]3(C(=O)OC)[C@H]2C1=O,-2.7,13,/,-19,-0.9,-1,-1.9
COc1ccc(CCCC(=O)Nc2ccccc2F)cc1,1.8,0,-2%,7,-0.6,-26,3.8
CC(=O)C1C(c2cccc([N+](=O)[O-])c2)C2C(C)=NN=C2CC1(C)O (stereo not given),2.9,-1,0%,11,3.1,0,0.1
CC(=O)Nc1ccc(N2C(=O)CCC2=O)cc1C,0.4,-1,3%,18,-1.6,-4,5.3
CC[C@@H]1C/C=C\Cc2ccccc2[C@H](C(=O)C[C@H](O)CC(C)=O)OC1=O,-2.9,4,-1%,/,0.3,/,/
CCC(C)(C)NC(=O)c1ccc2c(c1)N(CC(=O)OC)C(=O)C(C)(C)O2,-0.1,-3,3%,-5,18*,-6,?
O=C(c1ccco1)N1CCN(Cc2csc(-c3ccccc3Cl)n2)CC1,0.0,-3,-2%,2,0.9,2,?
O=C1C=C(c2ccc3ncccc3c2)C[C@@H](c2ccc3c(c2)OCO3)C1,0.9,-17,/,/,0.0,-30,/
CN(c1ccc(OCC(=O)N2CCOCC2)cc1)S(=O)(=O)c1ccc(F)cc1,1.7,-2,4%,4,4.1,1,1.2
CCN(CC)S(=O)(=O)c1ccc(N2CCOCC2)c(NC(=O)C2=COCCO2)c1,1.1,-17,/,-1,0.9,1,4.1
O=C(CCCNC(=O)c1ccc(Cl)cc1)NCc1ccccc1Cl,1.5,-4,3%,/,0.8,-20,0.1
CC/C(=N\NS(C)(=O)=O)c1ccccc1,/,/,-7%,-16,-3.0,4,0.1
COc1ccc(/C=N/NC(=O)c2cc(C)on2)c2ccccc12,1.5,0,-1%,55,-0.3,-5,2.1
Cc1cc(C)n2nc(C(=O)OCC(=O)N(C)CC(=O)Nc3ccc(F)cc3)nc2n1,0.8,0,88%,/,-2.8,3,/
Cc1cc(C)c2c(c1)c1nnc(SCCN3CCCCC3)nc1n2C,3.9,-3,-6%,1,/,/,-2.3
NC(=S)N/N=C1/CCSc2ccc3ccccc3c21,-3.1,6,/,10,-4.9,-16,0.4
CC(/C=C1\SC(=S)N(CC(=O)O)C1=O)=C\c1ccccc1,-0.4,3,/,-2,-2.0,11,-1.0
COc1cc(C[C@@H]2C(=O)OC[C@H]2Cc2ccc(OC)c(OC)c2)ccc1O,-1.5,-1,/,/,-0.1,50,/
COC(=O)c1ccc(CSc2nc3sc(C(=O)O)c(C)c3c(=O)[nH]2)cc1,/,/,15%,7,1.5,-73,2.8
Cc1nc(N/C(N)=N/S(=O)(=O)c2ccc([N+](=O)[O-])cc2)nc2ccccc12,5.0,12,/,6,-4.8,-5,-0.3
Cc1ccc(S(=O)(=O)N(C)CC(=O)N2CC(C)OC(C)C2)cc1 (stereo not given),3.9,-5,-7%,7,1.9,-11,-3.7
CCC/C(=N/NC(=O)c1csc(C)c1C)c1ccc(Cl)s1,0.9,0,-2%,-4,2.2,-2,-0.4
CCOC(=O)C1=C(C)NC(=O)NC1c1ccc(OCC(=O)Nc2ccccc2)c(OC)c1 (stereo not given),-0.4,-1,5%,-9,7.7,1,3.4
Cn1c(=O)c2c(ncn2Cc2nnc(N)s2)n(C)c1=O,-1.8,-5,14%,-10,-0.9,-23,-3.5
C#CCNC(=O)C1=C[C@@H](c2cn(C(C)=O)c3ccccc23)C[C@@H](OCc2ccc(CO)cc2)O1,-2.4,8,-11%,11,-2.8,-14,0.5
O=S(=O)(c1cccc2nsnc12)N1CCCC1,-4.3,2,6%,0,-1.2,-1,1.1
COC(=O)c1ccc(Cn2nc(C(F)(F)F)cc2C)cc1,1.9,-6,-2%,-4,-1.3,-34,4.6
Cn1c(=O)oc2cc(S(=O)(=O)N3CCCC(C(=O)NC4CCCc5ccccc54)C3)ccc21 (stereo not given),4.8,-31,-2%,3,3.3,-4,-2.6
Cc1ccccc1OC(=O)CCC(=O)OCCCC(F)(F)C(F)(F)F,-0.6,3,28%,3,4.9,-21,-2.3
COc1ccc(CNCc2ccc(F)cc2)c(OC)c1,-4.0,-3,-2%,-20,3.0,-12,-3.3
CN(C)S(=O)(=O)c1cccc(NC(=O)NCCCl)c1,-4.9,-1,1%,3,-2.5,-17,-1.2
Cc1c(C(=O)Nc2ccc(Cl)cc2)c2ccccn2c1CCc1ccncc1,4.0,-18,72%,?,-1.9,-7,-2.3
COc1ccc(NC(=O)CN(C)C(=O)c2cc(-c3ccncc3)nc3ccccc23)cc1,1.6,4,/,13,1.9,-2,-1.9

# More compounds follow:
SMILES,HNF4A DNA FP,Beta2AR agonist,Vif A3G,Calb FLC,LANA-H2B inh,ALR inh,RanGTP-Impb inh
O=S(=O)(c1ccc(Cl)cc1)N1CCn2c1nc1ccccc12,-1.0,-5,6%,-3,-2.2,-4,0.6
Cc1ccc(S(=O)(=O)N2CCOCCOCCOCCOCCOCC2)cc1,-0.7,-1,/,7,-5.7,/,2.8
COc1ccc(S(=O)(=O)N2CCOCC2)cc1NS(=O)(=O)/C=C/c1ccccc1,0.3,-20,0%,-4,4.8,-4,-3.7
CNS(=O)(=O)c1cccc(C(=O)OCC(=O)N(Cc2ccccc2)C(C)(C)C)c1,-1.2,-5,16%,-2,-3.8,-7,-0.3
Cc1cc(C(=O)N2CCN(c3ccccc3Cl)CC2)c(C)o1,0.0,6,3%,/,1.7,4,/
CC12CN(S(=O)(=O)c3ccccc3)CC(C)(CN(S(=O)(=O)c3ccccc3)C1)C2,1.5,8,2%,-20,-1.1,-1,-3.8
Cc1nc2ccc(NC(=O)c3ccc(S(=O)(=O)N(C)c4ccccc4)cc3)cc2s1,0.0,13,?,-13,2.8,-4,-1.8
CCN(Cc1nc2cc(Cl)ccc2c(=O)[nH]1)C(=O)C1CC(=O)N(c2cccc3ccccc23)C1 (stereo not given),8.2,-5,3%,/,-3.6,-10,/
COC(=O)c1ccccc1NC(=O)Nc1nnc(N2CCCCC2C)s1 (stereo not given),-0.6,-11,-5%,2,2.8,38,-1.3
COc1ccc(C(=O)Nc2nc3cc(OC)c(OC)cc3c(=O)[nH]2)cc1,0.0,-16,2%,/,-2.9,-3,/
O=C(Cn1ncn2c(cc3ccccc32)c1=O)NCCC1=CCCCC1,0.3,-10,-9%,1,-5.0,-4,-2.0
Cc1ccc(/C(O)=C2/C(=O)C(=O)N(CCN3CCOCC3)C2c2ccccn2)cc1 (stereo not given),2.2,1,15%,-14,-0.7,/,22*
COc1ccc(C(=O)N/C(N)=N/c2nc3ccccc3o2)cc1,-4.8,-15,5%,1,-0.8,-7,1.6
O=C(CN1C(=O)c2ccccc2C1=O)N(CCO)Cc1ccccc1,1.5,-5,0%,2,1.5,-28,5.3
Oc1cc2c(cc1CN1CCc3ccccc3C1)OCO2,-3.6,-11,5%,-11,6.4,26,-0.6
O=C(O)c1ccc(-n2cccc2/C=N\NC(=O)c2cc3cc(Br)ccc3o2)cc1,-48,2,6.5µM*,-4,0.5,87*,-3.5
O=c1c(Cc2c(F)cccc2Cl)c(O)ccn1CCCN1CCOCC1,-2.7,13,19%,-3,-0.6,4,?
CNc1ccc([N+](=O)[O-])cc1,5.3,-1,/,/,-28,5,/
Cc1cc(C)n(/C(=C\N(C)C)C(=O)c2cccc([N+](=O)[O-])c2)n1,1.9,-3,3%,-5,0.4,/,-5.0
COc1ccc(Cl)cc1NC(=O)C(C)N(C)Cc1cccc(Cl)c1Cl (stereo not given),-2.6,-6,18%,-1,1.3,/,5.0
Cc1cccc(OCc2nnc(SCC(=O)Nc3cccc(C(=O)N4CCOCC4)c3)n2C)c1,0.2,-3,1%,-5,-3.5,-24,-2.6
CCOc1ccc(S(=O)(=O)N2Cc3ccccc3CC2C(=O)NCCCn2ccnc2)cc1 (stereo not given),-1.1,-7,-1%,30,-0.4,-6,0.8
CC(C)(C)NC(=S)NNC(=O)c1ccccc1Cl,-3.4,-2,/,4,3.4,28,-1.6
Cc1cnc(CNC(=O)CC2C(=O)NCCN2Cc2ccccc2C(F)(F)F)cn1 (stereo not given),-3.3,9,-1%,-3,3.1,-2,1.8
Cc1ccc(Cl)cc1NC(=O)CSc1nncn1-c1ccccn1,0.7,-16,3%,-5,-2.0,-13,-2.5
CCCOc1ccccc1NC(=O)/C=C/C(N)=O,0.3,-1,-7%,-4,-4.1,6,-1.2
CCOc1nc(Nc2ccc(OC)cc2OC)nc(OCC)n1,-1.0,-3,/,-8,0.2,0,4.8
Cc1ccc2nc(Nc3ccc(C)c(C)c3)c3nncn3c2c1,-3.9,-16,-8%,?,2.3,-9,5.8
O=C(Nc1ccc(Cl)cn1)c1ccc(Br)c(S(=O)(=O)N2CCCCC2)c1,1.5,13,/,-4,5.1,9,-0.4
COc1ccc(N(Cc2cc(=O)[nH]c3ccccc23)C(=O)CCl)cc1,-3.2,16,/,17,0.3,8,5.4
